Source: PubChem
DUX4 inh: inhibitors of DUX4-driven ZSCAN4 reporter expression, primary screen, 293T cells, Gaussia and Italica luciferase. 37,000 compounds, 0.8% hits. 293T-iDUX4 ZSCAN4-Gaussia luciferase reporter, 24 h; stronger effect = lower value. activity change, negative = inhibition, % (concentration not given with the values);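 active means -10% or lower and over 25 points stronger than a control reporter; inconclusive means -10% or lower with a smaller gap; inactive means above -10%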;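 further: 0% = median of neutral control wells and -100% = median of positive control wells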
DUX4 inh difference: further read-out of DUX4 inh, marked with its call; Gaussia minus Italica difference, %; measured here: selective DUX4 reporter inhibition;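 worked out from the two reporters; negative = selective loss of the DUX4 reporter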
DUX4 inh control: also measured in DUX4 inh; calls as there; activity change, negative = inhibition, %; measured here: Italica tet-on control reporter;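 0 = neutral control and -100 = positive control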
* marks the source's active call; other numbers are inactive results; ? = inconclusive; nt = not tested or not shown. Not all compounds are listed; count on the stated rates, not on these rows.

SMILES | DUX4 inh | DUX4 inh difference | DUX4 inh control
COCc1cn(CC[C@H]2CC[C@@H](NC(=O)Nc3c(C)noc3C)[C@@H](CO)O2)nn1 | 2 | -1 | 2.5
CCN1[C@@H]2Cn3c(ccc(-c4ccccc4F)c3=O)[C@H]1[C@@H](C(=O)NCc1ccc(F)cc1)[C@@H]2CO | 4 | 4 | -0.5
CO[C@H]1CN(C)C(=O)c2cc(NS(=O)(=O)CC(F)(F)F)ccc2OC[C@@H](C)NC[C@@H]1C | 2 | -1 | 3.5
CCC(=O)NC[C@H]1[C@@H](c2ccc(-c3cccc(F)c3)cc2)[C@H](CO)N1C(=O)CC | -5 | -7 | 1.9
C[C@H]1CN([C@@H](C)CO)C(=O)CCCn2cc(nn2)CO[C@@H]1CN(C)C(=O)Nc1cccc(F)c1 | 0 | 0 | -0.8
CN1C(=O)c2cc(NS(=O)(=O)c3ccc(F)cc3)ccc2OC[C@H]2O[C@@H](CC(=O)NCC(F)(F)F)CC[C@H]21 | 2 | -5 | 6.8
CO[C@@H]1CN(C)C(=O)c2cc(NS(=O)(=O)c3ccc(Cl)cc3)ccc2OC[C@H](C)N(C(=O)NC(C)C)C[C@H]1C | 0 | 1 | -1.4
CNC[C@@H]1Oc2ccc(NS(=O)(=O)c3cccs3)cc2C(=O)N([C@@H](C)CO)C[C@@H]1C | -2 | 0 | -1.7
Cc1noc(C)c1S(=O)(=O)Nc1ccc2c(c1)C(=O)N([C@@H](C)CO)C[C@H](C)[C@H](CN(C)Cc1ccc(C(=O)Nc3ccccc3N)cc1)O2 | 1 | 3 | -2.0
O=S(=O)(c1ccccc1)N1C[C@@H]2[C@H](c3ccccc31)[C@@H](CO)N2Cc1ccc(F)cc1 | 1 | -4 | 4.1
O=C(CN1CCOCC1)NCC[C@@H]1CC[C@@H](NC(=O)c2ccc3c(c2)OCO3)[C@@H](CO)O1 | 3 | 6 | -2.7
CO[C@@H]1CC[C@H]2CCOc3ccc(C#N)cc3C(=O)N(C)[C@@H](C)C(=O)N(C)C[C@H]1O2 | 2 | 1 | 0.3
COc1ccc2c3c(n(C)c2c1)[C@@H](CO)N(C(=O)c1ccccc1)CC31CCN(CC2CC2)CC1 | -2 | -9 | 6.7
CN(C)C(=O)[C@H]1[C@H](CO)[C@H]2Cn3c(ccc(-c4ccccc4)c3=O)[C@@H]1N2CC1CCCC1 | -8 | -12 | 3.3
Cc1noc(C)c1NC(=O)N1C[C@@H](O)COC[C@@H]2O[C@H](CC(=O)N[C@H]3CCN(Cc4ccccc4)C3)CC[C@H]21 | 4 | 1 | 3.0
Cn1cnc(S(=O)(=O)N2C[C@H](O)COC[C@@H]3O[C@H](CC(=O)N4CCN(c5ccccc5)CC4)CC[C@H]32)c1 | 9 | 6 | 2.2
COc1cccc(S(=O)(=O)N2C[C@@H](O)COC[C@@H]3O[C@@H](CC(=O)N4CCCCC4)CC[C@H]32)c1 | 2 | 2 | 0.3
C[C@H]1CN([C@@H](C)CO)C(=O)CCCn2cc(nn2)CO[C@@H]1CN(C)C(=O)C1CC1 | -3 | 0 | -3.2
CC(=O)N1C[C@@H]2[C@H](c3ccccc31)[C@H](CO)N2C(=O)c1ccc(F)cc1 | -2 | -3 | 0.6
O=C(C[C@H]1CC[C@@H]2[C@H](COC[C@H](O)CN2C(=O)c2ccncc2)O1)NCc1ccc(-c2ccccc2)cc1 | 3 | -7 | 9.6
O=C(NCC1CC1)[C@@H]1[C@@H](CO)[C@@H]2Cn3c(cccc3=O)[C@@H]2N1Cc1cncnc1 | 2 | 7 | -5.5
CN1c2ccc(C3=CCCCC3)cc2[C@@H]2[C@@H](CCN2C(=O)Nc2cc(F)ccc2F)[C@@H]1CO | -5 | 11 | -16
O=C(NCC1CCCCC1)[C@@H]1N[C@@H]2c3ccc(C4=CCCCC4)c(=O)n3C[C@@H]2[C@H]1CO | -3 | 1 | -4.4
Cc1cccc(S(=O)(=O)N2C[C@@H]3[C@H](c4ccccc42)[C@H](CO)N3C(=O)C2CC2)c1 | 1 | 3 | -1.8
COc1ccc(C#Cc2ccc([C@H]3[C@@H](CO)N4CCCCN(C(=O)c5ccncc5)C[C@@H]34)cc2)cc1 | -8 | 7 | -16
C[C@@H]1CCCCO[C@@H](CN(C)C(=O)CCC(F)(F)F)[C@@H](C)CN([C@H](C)CO)C(=O)c2cc(NC(=O)C3CCCCC3)ccc2O1 | 2 | -1 | 3.2
COCC(=O)N1C[C@@H](C)[C@@H](OC)CN(C)C(=O)c2ccc(NC(=O)Nc3cccc(F)c3)cc2OC[C@@H]1C | 1 | -6 | 7.2
O=C(c1ccc(F)cc1)N1CCCCN2[C@@H](CO)[C@H](c3ccc(-c4ccccc4)cc3)[C@@H]2C1 | 12 | 1 | 11
COc1ccc(C#Cc2ccc([C@@H]3[C@@H](CO)N4C(=O)CN(C(C)=O)C[C@@H]34)cc2)cc1 | -8 | -7 | -0.7
C[C@H](CO)N1C[C@H](C)[C@H](CN(C)C(=O)CCCN(C)C)OCCCC[C@H](C)Oc2ccc(NS(=O)(=O)c3cn(C)cn3)cc2C1=O | 2 | -1 | 3.6
CCCC#Cc1cnc2c(c1)C(=O)N([C@@H](C)CO)C[C@@H](C)[C@@H](CN(C)C(=O)Cc1ccccc1)O2 | 0 | 1 | -0.7
N#C[C@H]1[C@@H](c2ccccc2-c2ccccc2)[C@@H](CO)N1C(=O)NC1CCCC1 | ? | nt | nt
CO[C@@H]1CN(C)C(=O)c2ccc(NC(=O)c3cccc(F)c3)cc2OC[C@@H](C)N(C(C)=O)C[C@H]1C | 3 | 1 | 1.9
CCCC(=O)Nc1ccc2c(c1)C(=O)N(C)[C@H]1CC[C@H](CC(=O)OC)O[C@H]1CO2 | 7 | 4 | 3.1
Cc1cccc(S(=O)(=O)N(C)C[C@@H]2OCc3ccccc3-c3c(n(C)c4ccccc34)C(=O)N([C@@H](C)CO)C[C@H]2C)c1 | -53* | -47* | -6.3*
Cn1cnc(S(=O)(=O)N2CCCCN3[C@@H](CO)[C@H](c4ccc(-c5cccc(F)c5)cc4)[C@@H]3C2)c1 | 10 | 16 | -6.0
CN1C(=O)c2cc(NC(=O)Cc3ccccc3)ccc2OC[C@H]2O[C@H](CC(=O)NC3CCC3)CC[C@H]21 | 3 | 2 | 1.0
CCS(=O)(=O)N[C@H]1CC[C@H](CC(=O)Nc2ccc(-c3ccccc3)cc2)O[C@H]1CO | -2 | -2 | -0.4
COc1ccc(S(=O)(=O)N2CC[C@H]3[C@@H](CO)N(C)c4ccc(C5=CCCCC5)cc4[C@H]32)cc1 | 3 | 0 | 2.4
CS(=O)(=O)Nc1ccc2c(c1)[C@@H]1C[C@H](CC(=O)NCc3ccncc3)O[C@H](CO)[C@@H]1O2 | 8 | 2 | 5.7
CC(=O)NC[C@H]1[C@@H](c2ccc(C3=CCCC3)cc2)[C@@H](CO)N1C(=O)CN(C)C | -4 | -3 | -1.3
COc1cccc(CN2CC3(CCN(C)CC3)c3c([nH]c4cc(OC)ccc34)[C@H]2CO)c1 | ? | nt | nt
C[C@H](NC(=O)C[C@H]1C[C@H]2c3cc(NS(C)(=O)=O)ccc3O[C@H]2[C@H](CO)O1)c1ccccc1 | 5 | 5 | -0.1
Cc1cccc(S(=O)(=O)N2CCCCN3[C@@H](CO)[C@H](c4ccc(-c5ccncc5)cc4)[C@@H]3C2)c1 | -5 | -18 | 12
COc1ccccc1-c1ccc([C@@H]2[C@@H](CO)N3CCCCN(Cc4ccncc4)C[C@H]23)cc1 | -1 | -1 | -0.4
C[C@H](CO)N1C[C@H](C)[C@H](CN(C)C(=O)Nc2cccc3ccccc23)OCc2cnnn2CCCC1=O | 4 | 3 | 1.1
COCC(=O)N1CC2(C1)[C@H](c1ccccc1)[C@@H](CO)N2Cc1ccccc1OC | -8 | -8 | 0.4
CCCC(=O)Nc1ccc2c(c1)C(=O)N(C)C[C@H](OC)[C@@H](C)CN(C)[C@@H](C)CO2 | 0 | -2 | 2.4
O=S(=O)(c1ccccc1)N1CCCCN2[C@@H](CO)[C@@H](c3ccc(C#Cc4ccccn4)cc3)[C@@H]2C1 | 0 | 3 | -3.5
CO[C@H]1CN(C)C(=O)c2ccc(NC(=O)Nc3cc(F)ccc3F)cc2OC[C@H](C)N(C)C[C@H]1C | 0 | 9 | -9.0
CN1C(=O)c2cc(NS(=O)(=O)c3cccc(F)c3)ccc2OC[C@@H]2O[C@@H](CC(=O)N3CCc4ccccc4C3)CC[C@@H]21 | 1 | 2 | -1.0
COc1ccccc1CNC(=O)C[C@@H]1C[C@@H]2c3cc(NC(=O)CN(C)C)ccc3O[C@@H]2[C@H](CO)O1 | 2 | 3 | -0.4
CC=Cc1ccc2n(c1=O)C[C@@H]1[C@@H](CO)[C@H](C(=O)Nc3ccc(-c4ccccc4)cc3)N(CC)[C@H]21 (mixture of isomers) | ? | nt | nt
C[C@@H]1CN([C@H](C)CO)C(=O)Cc2cc(NC(=O)C3CCCCC3)ccc2O[C@H]1CN(C)Cc1ccc(C(=O)Nc2ccccc2N)cc1 | 3 | 2 | 1.0
O=C(C[C@H]1CC[C@H]2[C@@H](COC[C@@H](O)CN2C(=O)Nc2ccc(C(F)(F)F)cc2)O1)NC1Cc2ccccc2C1 | -1 | 3 | -3.2
O=C(Nc1ccccc1F)N1CCCCN2[C@H](C1)[C@H](c1ccc(C3=CCCC3)cc1)[C@@H]2CO | 10 | -2 | 12
COCC(=O)NC[C@H]1[C@@H](c2ccccc2)[C@@H](CO)N1C(C)=O | -4 | -5 | 0.8
CCCNC(=O)C[C@@H]1CC[C@H]2[C@@H](COC[C@H](O)CN2Cc2ccncc2)O1 | -3 | -1 | -2.5
COc1ccc(S(=O)(=O)Nc2ccc3c(c2)C(=O)N([C@H](C)CO)C[C@@H](C)[C@H](CN(C)CC2CC2)OCCCC[C@@H](C)O3)cc1 | 0 | 1 | -0.6
COc1cccc(C#Cc2ccc([C@@H]3[C@H]4CN(C(=O)C5CC5)CC(=O)N4[C@H]3CO)cc2)c1 | 0 | 2 | -1.8
(listing goes on)
SMILES | DUX4 inh | DUX4 inh difference | DUX4 inh control
COC(=O)N(C)C[C@@H]1OCc2cnnn2CCCC(=O)N([C@H](C)CO)C[C@@H]1C | -5 | 0 | -5.6
C[C@H](CO)N1C[C@H](C)[C@@H](CN(C)S(C)(=O)=O)Oc2cc(-c3ccncc3)ccc2S1(=O)=O | 4 | 17 | -13
C[C@@H]1CN([C@H](C)CO)C(=O)c2cc(C#Cc3ccccn3)cnc2O[C@@H]1CN(C)Cc1cccnc1 | 7 | 4 | 3.0
CN(C)C(=O)c1cccc(-c2ccccc2[C@@H]2[C@@H](CO)N(C(=O)C3CCC3)[C@H]2C#N)c1 | 12 | 1 | 11
CN(C)C(=O)C[C@H]1CC[C@@H]2[C@@H](COc3ccc(NC(=O)Nc4cccc(Cl)c4)cc3C(=O)N2C)O1 | -1 | -2 | 0.8
CCCNC(=O)[C@@H]1[C@@H](CO)[C@@H]2Cn3c(ccc(/C=C/c4ccccc4)c3=O)[C@H]1N2C(C)=O | 8 | 7 | 1.2
C[C@@H]1CN([C@@H](C)CO)C(=O)CCCn2cc(nn2)CO[C@@H]1CN(C)Cc1ccc(C(=O)O)cc1 | -6 | -4 | -1.6
O=C(C[C@H]1CC[C@@H]2[C@H](COC[C@@H](O)CN2CC2CCOCC2)O1)NCc1ccc(Cl)cc1 | 3 | -5 | 8.2
COC(=O)C[C@@H]1C[C@H]2c3cc(NC(=O)c4ccc5c(c4)OCO5)ccc3O[C@H]2[C@@H](CO)O1 | -3 | 7 | -10
COc1cccc(NC(=O)N2CC(=O)N3[C@H](C2)[C@H](c2ccc(C#CC4CCCCC4)cc2)[C@@H]3CO)c1 | 1 | 3 | -1.8
CCCC(=O)N1CC2(CN(Cc3nccs3)C2)c2c([nH]c3cc(OC)ccc23)[C@@H]1CO | 4 | 0 | 3.9
C[C@H](CO)N1C[C@H](C)[C@@H](CN(C)Cc2ccc(-c3ccccc3)cc2)OCc2cnnn2CCCC1=O | ? | nt | nt
COc1ccc(C[C@H]2CCn3nncc3COC[C@@H](c3ccccc3)NC2=O)cc1 | -1 | 0 | -0.6
O=C(CCN1CCCCC1)N[C@@H]1CC[C@@H](CC(=O)N2CCC(Cc3ccccc3)CC2)O[C@@H]1CO | ? | nt | nt
N#C[C@H]1[C@@H](c2ccccc2-c2cccc(F)c2)[C@@H](CO)N1C(=O)C1CCC1 | -2 | -8 | 6.2

Full records, looked up by structure.
`CN(C)C(=O)c1cccc(-c2ccccc2[C@@H]2[C@@H](CO)N(C(=O)C3CCC3)[C@H]2C#N)c1` as listed: DUX4 inh = 12; DUX4 inh difference = 1; DUX4 inh control = 11
`C[C@H](CO)N1C[C@H](C)[C@@H](CN(C)S(C)(=O)=O)Oc2cc(-c3ccncc3)ccc2S1(=O)=O` as listed: DUX4 inh = 4; DUX4 inh difference = 17; DUX4 inh control = -13
`COC(=O)C[C@@H]1C[C@H]2c3cc(NC(=O)c4ccc5c(c4)OCO5)ccc3O[C@H]2[C@@H](CO)O1` as listed: DUX4 inh = -3; DUX4 inh difference = 7; DUX4 inh control = -10

Another view of four compounds above:
The line under a structure holds: DUX4 inh, DUX4 inh difference, DUX4 inh control
- CN(C)C(=O)c1cccc(-c2ccccc2[C@@H]2[C@@H](CO)N(C(=O)C3CCC3)[C@H]2C#N)c1
 : 12, 1, 11
- CN(C)C(=O)C[C@H]1CC[C@@H]2[C@@H](COc3ccc(NC(=O)Nc4cccc(Cl)c4)cc3C(=O)N2C)O1
 : -1, -2, 0.8
- CCCNC(=O)[C@@H]1[C@@H](CO)[C@@H]2Cn3c(ccc(/C=C/c4ccccc4)c3=O)[C@H]1N2C(C)=O
 : 8, 7, 1.2
- C[C@@H]1CN([C@@H](C)CO)C(=O)CCCn2cc(nn2)CO[C@@H]1CN(C)Cc1ccc(C(=O)O)cc1
 : -6, -4, -1.6
